# Assay outcomes deposited in PubChem by National Center for Advancing Translational Sciences (NCATS).
# TRPML1 inh – human mucolipin-1 channel inhibition. Q9GZU1. TRPML1-inducible cells, Ca2+ dye fluorescence, FDSS; hits give low values; inhibition of EC80 agonist-evoked calcium signal. activity change, negative = inhibition, % (test concentration not listed). hit rate 0.02% among 390,000; in the data active means activity change below about -50%; inconclusive means about -30% to -50%; inactive means above about -30%;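 also: stimulus is agonist 54-4 at its EC80 concentration; % is scaled to controls: 0 for no effect and ±100 for the full control effect; compound concentration not given in the record; the text of the record puts the active cut at -80%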
# Target sequence (Q9GZU1 whole entry, looked up): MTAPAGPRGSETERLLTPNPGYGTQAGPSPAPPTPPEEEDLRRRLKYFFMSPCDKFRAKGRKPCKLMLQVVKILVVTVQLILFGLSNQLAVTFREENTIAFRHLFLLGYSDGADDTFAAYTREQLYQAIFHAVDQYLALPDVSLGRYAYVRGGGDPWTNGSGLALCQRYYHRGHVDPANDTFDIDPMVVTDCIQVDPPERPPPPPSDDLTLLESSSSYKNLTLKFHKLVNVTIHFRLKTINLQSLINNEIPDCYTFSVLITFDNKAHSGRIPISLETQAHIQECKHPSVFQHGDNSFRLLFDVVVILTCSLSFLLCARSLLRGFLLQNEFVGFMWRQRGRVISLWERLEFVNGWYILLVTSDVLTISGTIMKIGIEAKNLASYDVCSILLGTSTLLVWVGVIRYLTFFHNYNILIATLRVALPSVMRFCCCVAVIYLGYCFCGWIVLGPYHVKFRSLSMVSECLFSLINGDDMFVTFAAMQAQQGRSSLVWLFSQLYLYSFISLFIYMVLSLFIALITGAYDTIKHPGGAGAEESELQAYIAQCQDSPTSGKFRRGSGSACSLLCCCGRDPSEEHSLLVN
#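 TRPML1-DL cells, Tet-induced overnight (~16 h, 37 °C) at 1,500 cells/well, were loaded with Ca8 no-wash dye plus quencher for 45-90 min at room temperature. Compounds were pinned during FDSS kinetic reading; agonist 54-4 at EC80 (4 uM final) then added.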
# gsp antag – gsp mutant antagonism; gsp-mutant cells, cAMP HTRF, 30 min; control for the full effect not named in the record; Potency, µM (highest dose often 76.9 µM), inactives show top-dose activity change, negative = inhibition, actives largely listed as inhibitors; hit rate 0.4% among 340,000; AID 624288; active = falling curve of any shape with a large fitted effect; inconclusive = falling curve, mostly with a smaller effect; inactive = flat or rising curve; cell line not stated here;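 also: intracellular cAMP measured with PDE inhibitor Ro 20-1724 present during compound exposure; potency is read from the fitted curve at half-maximal effect; % is scaled to controls: 0 for no effect and ±100 for the full control effect; nearly all actives have a fitted effect of over 65% in size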
#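 Measurement of cellular cAMP by homogeneous time-resolved fluorescence following a 30 min compound exposure at 37C. The PDE inhibitor […] was present throughout; the assay buffer was DPBS with 0.05% BSA and 0.005% Tween 20.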
# gsp agonist – agonists of gsp mutant (McCune-Albright syndrome). gsp mutant cells, cAMP HTRF, 30 min; control for the full effect not named in the record. hit rate 0.13% among 340,000. AID 624287. Potency, µM (series often up to 76.9 µM), for inactives: top-dose activation (cAMP increase), usual class: activators; active = well fitted activation curve with a large enough effect; inconclusive = small, poorly fitted or top-dose-only effect, or another doubt; inactive = no such curve, though single readings can be large or run the other way; cell line not stated here;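 also: phosphodiesterase inhibitor Ro 20-1724 added with compounds to block cAMP breakdown; potency is read from the fitted curve at half-maximal effect; nearly all actives have a fitted effect of over 60% in size; about a fifth of the inactives were tested at one dose only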
#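 Cells in DMEM/10% FBS with G418 were pretreated with compounds in DMSO plus […] (300 uM stock) for 30 min at 37C. cAMP was measured by HTRF (cAMP-d2 plus anti-cAMP antibody-K) after 30 min at room temperature.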
# TRPML1 agonist – agonists of human TRPML1 channel; Q9GZU1; TRPML1-expressing cells, Ca2+ dye fluorescence, FDSS; host cell line not named in the record; reference of the full effect not given here; activation, % (test concentration not listed); hit rate 0.12% among 410,000; in the data active = activation above about 50%; inconclusive = about 30% to 50%; inactive = below about 30%; also: 0% is about no effect; the text of the record puts the active cut at 80%
#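 Cells: TRPML1-DL, 1X Tet inducer, ~16 h at 37 degrees C/5% CO2. Dye: ABD Ca8 no-wash + quencher, 45-90 min RT. Read: 10 s baseline, compound add, 110 s agonist phase; 54-4 EC80 (4uM final), 110 s antagonist phase.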
# ClpP mod – qHTS Assay for Activators of ClpP; hit rate 1.9% among 340,000; Potency, µM (highest dose often 57.5 µM), inactives show at the top dose activity change, negative = active; purified B. subtilis ClpP, FRET peptide cleavage, 20 min; active = well fitted falling curve with a large enough effect; inconclusive = small, poorly fitted or top-dose-only effect; inactive = no such curve, though single readings can be large or run the other way; also: potency is read from the fitted curve at half-maximal effect; the source files actives as falling curves though it sought activators and does not explain the sign; nearly all actives have a fitted effect of over 65% in size; many hits overshoot -100%
# Target sequence (P80244 whole entry, looked up): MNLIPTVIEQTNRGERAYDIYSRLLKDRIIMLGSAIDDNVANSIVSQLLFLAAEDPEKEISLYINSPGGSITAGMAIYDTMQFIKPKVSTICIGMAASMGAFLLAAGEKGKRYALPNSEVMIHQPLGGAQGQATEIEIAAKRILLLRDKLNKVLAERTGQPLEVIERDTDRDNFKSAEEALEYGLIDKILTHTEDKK
#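 Buffer: 100 mM Tris/HCl pH8, 100 mM KCl, 0.05% low protease BSA, 2.5% glycerol, 0.01% Tween-20. ClpP 10 microg/mL final; 20 min RT; delta FRET normalized to ADEP and DMSO controls.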
# Menin MLL FP FL – inhibitors of human menin-MLL interaction, wild-type MLL peptide | Fluorescence polarization, fluorescein-MLL peptide displacement from menin | FP activity change, % at 61.4 µM | AID 1766 | 290,000 tested, under 10 active; inconclusive = falling polarisation curve, or a change in total fluorescence; inactive = total fluorescence flat and polarisation flat or rising; no compound was filed as active; the % refers to the polarisation; negative = inhibition;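 also: % of control where 0% means no effect; inhibitors lower the polarisation; unlabelled MLL peptide was the positive control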
# Numbers without * were called inactive; ? = inconclusive; . = no result given; [ ] = remark or other dose.
structure,ClpP mod,TRPML1 agonist,gsp antag,Menin MLL FP FL,gsp agonist,TRPML1 inh
Cc1cc(-n2c(SCc3ccccc3F)nc3n[nH]c(C)c3c2=N)ccc1Cl,4.2%,1.0,-14%,2.6,-2%[15.4 µM],-7
COc1ccccc1N(C(=O)CNC(=O)c1ccco1)C(C(=O)NC1CCCCC1)c1ccncc1 (configuration not stated),.,0.5,.,-2.4,-15%[15.4 µM],4
Cc1ccc(OCc2nnc(N)s2)cc1C,0.2%,-0.5,13%,1.1,5%[15.4 µM],2
COc1ccc2c(c1)c1c(c(=O)n(-c3ccc(OC)c(OC)c3)c(=O)n1CC(=O)N1CCCC1)n2C,4.1%,0.6,.,.,.,25
COc1ccc(C(=O)N2CCN(C(=O)c3ccco3)CC2)cc1OC,1.1%,-0.4,-3%,2.3,-41%[inhibitor],17
O=C(Nc1ccccc1)Nc1cccc(C(F)(F)F)c1,.,-0.8,-7%,4.8,17%[15.4 µM],5
Cc1ccc(NC(=O)Nc2nnc(N(CC(C)C)CC(C)C)s2)cc1Cl,0.1%,-0.1,.,.,.,-10
CCC(C)(C)NC(=O)C(c1ccc(OC)cc1)N(C(=O)CCC(=O)Nc1cc(C)on1)c1cccc(OC)c1 (configuration not stated),-2.1%,-1.4,-6%,-1.3,6%[15.4 µM],14
OCC1(CCOc2ccccc2)CCN(Cc2cccn2-c2ncccn2)CC1,.,0.4,17%,-3.2,-22%,-10
CCOC(=O)c1c(C)[nH]c(C)c1S(=O)(=O)N(C)CC(=O)N1CCN(c2ccc(Cl)cc2)CC1,0.5%,-0.9,.,.,.,31
CCOc1ccc(OCCC(=O)OCC(=O)NCCc2ccc(S(N)(=O)=O)cc2)cc1,1.7%,0.0,2%,.,-32%[inhibitor],-16
Cc1cc(NS(=O)(=O)c2ccc(NS(=O)(=O)c3ccc(Br)cc3)cc2)no1,-0.7%,-0.4,3%,-2.1,-2%,-11
CN(C)c1ccc(N2C(=O)CC(Nc3ccc(N4CCOCC4)cc3)C2=O)cc1 (configuration not stated),1.1%,0.9,0%[15.4 µM],3.2,-15%,-19
CCCCOc1ccc(C(=O)Nn2c(-c3cccs3)nc3ccccc3c2=O)cc1,.,1.2,?,3.3,?,15
COc1ccc(CN2CCNC(=O)C2CC(=O)NCCSc2nccn2C)cc1OC (configuration not stated),-3.8%,1.5,3%,-0.2,-48%[inhibitor],-4
Cc1cc(=O)oc2cc(OCc3cc4c(cc3Cl)OCO4)ccc12,109%,0.9,-1%,3.2,2%,32
CCOC(=O)C1=CN(Cc2cccc(-c3cccnc3)c2)S(=O)(=O)N(C)C1C (configuration not stated),-0.4%,2.7,-19%,.,.,4
COc1cc(NC(=O)c2nn(C)c3c2COc2ccccc2-3)cc(OC)c1OC,5.7%,3.8,.,.,.,-12
CCC(CC)C(=O)N(C)c1c(C)nc2c(OCc3ccc(Cl)cc3Cl)cccn12,1.2%,0.2,.,.,.,48
CC(C)C[C@H](NC(=O)c1[nH]cnc1C(=O)Nc1ccc(Cl)cc1)C(=O)OC(C)(C)C,-10%,1.8,1%,2.0,.,-12

# Reprinted from the part before: two entries, followed by the next part.
structure,ClpP mod,TRPML1 agonist,gsp antag,Menin MLL FP FL,gsp agonist,TRPML1 inh
CCC(CC)C(=O)N(C)c1c(C)nc2c(OCc3ccc(Cl)cc3Cl)cccn12,1.2%,0.2,.,.,.,48
CC(C)C[C@H](NC(=O)c1[nH]cnc1C(=O)Nc1ccc(Cl)cc1)C(=O)OC(C)(C)C,-10%,1.8,1%,2.0,.,-12
Cc1cc(C)cc(NC(=O)N2CCN(C)c3ncccc32)c1,?,-0.5,.,.,.,1
CN(C(=O)COC(=O)CCCc1c[nH]c2ccccc12)c1c(N)n(Cc2ccccc2)c(=O)[nH]c1=O,-3.7%,4.4,1%,.,-15%,9
CC(C)c1cc(C(=O)OCC(=O)NC2CC2)c(O)c(C(C)C)c1,-20%,0.7,.,.,-5%,-2
Cc1ccccc1OCC(=O)Nc1cccc(N(C)S(C)(=O)=O)c1,1.5%,-0.6,-4%,-2.6,-37%[inhibitor],5
CC(=O)c1ccc(N2C(=O)[C@@H]3C(CCC(N)=O)NC4(C(=O)Nc5c4ccc(Cl)c5C)[C@@H]3C2=O)cc1 (some centres not stated),-14%,0.2,13%,2.4,5%,1
Cc1[nH]nc2c1C(c1ccco1)C(C#N)=C(N)O2 (configuration not stated),.,-0.4,8%,-0.8,22%,-1
CCN1CCN(c2cc(C(C)C)nc3c(-c4ccccc4)c(C)nn23)CC1,.,0.1,-1%,5.7,-6%[15.4 µM],-6
CCCc1nnc(NC(=O)Nc2ccc(OC)cc2)s1,0.0%,0.7,-7%,1.6,-12%,47
CC(C)c1ccc(NC(=O)C2(C)Cc3ccccc3C(=O)O2)cc1 (configuration not stated),0.8%,-0.2,.,.,.,-18
COc1cccc(-c2noc(C(C)n3nc(C)c([N+](=O)[O-])c3C)n2)c1 (configuration not stated),-0.7%,3.4,-13%,5.7,15%,6
O=C(Nc1ccc2c(c1)OCO2)c1ccc(S(=O)(=O)NCC2CCCO2)cc1 (configuration not stated),-0.4%,-0.5,-6%,1.3,?,-16
COc1cc2c(c(O)c1OC)-c1c(cc(OC)c(OC)c1OC)C[C@@H](C)[C@@H](C)C2,1.1%,-1.0,-4%,-0.6,13%,1
Cc1cccc2cc(CN(Cc3ccco3)C(c3nnnn3CCc3ccccc3)C(C)C)c(=O)[nH]c12 (configuration not stated),-16%,2.5,-1%,5.7,30%,12
Cc1ccc(C)c(NC(=O)Cn2c(=O)n(Cc3ccccc3)c(=O)c3oc4ccccc4c32)c1,-8.4%,0.5,.,.,.,-9
COc1ccc(-n2cnnc2SCC(=O)NC2CCCc3ccccc32)cc1 (configuration not stated),.,0.9,6%,1.0,1%[15.4 µM],-13
O=[N+]([O-])c1cccc(S(=O)(=O)N2CCN(S(=O)(=O)N3CCOCC3)CC2)c1,-1.5%,-0.5,10%,-3.6,18%[15.4 µM],-5
COc1ccc(Cl)cc1-n1nnc(-c2nc(-c3ccccc3)no2)c1C,-3.4%,0.1,.,.,.,32
Cc1ccc(CNC(=O)C2CCCN(c3ncnc4c3nc3n4CCCCC3)C2)cc1 (configuration not stated),0.0%,1.4,-7%,-0.2,-11%,-12
CCC(C)NC(=O)CO/N=C/c1ccc(C(=O)OC)cc1 (configuration not stated),-0.1%,0.0,2%,4.0,2%,16
O=C(CCC1CCCC1)NCc1ccccn1,-2.2%,-0.6,7%,-0.3,?,-13

# New compounds follow
structure,ClpP mod,TRPML1 agonist,gsp antag,Menin MLL FP FL,gsp agonist,TRPML1 inh
Cc1cc(C(=O)NC2CCCN(Cc3ccccc3F)C2)n[nH]1 (configuration not stated),-0.6%,0.1,2%,.,4%,12
CCOC(=O)N1CCN(C(=O)Cc2c(C(=O)O)n(C)c3ccccc23)CC1,.,-0.4,-3%,1.6,5%[15.4 µM],-18
C=CCn1c(-c2ccc(OC)cc2)nc2nc3ccccc3nc21,25µM*,0.3,9%,-2.7,?,0
O=C1CCC/C(=N/Nc2ccc(Cl)cc2)C1,-1.8%,0.2,-6%,?,5%,0
COc1cc(N=Nc2ccc(C)cc2S(N)(=O)=O)c(C)cc1N,.,1.4,-15%,.,-59%[inhibitor],-1
CC(CCc1ccc(O)cc1)N1CCC(Oc2ccc(C(=O)N3CCCC3)cc2)CC1 (configuration not stated),-5.8%,0.0,8%,.,29%,0
COc1ccc(S(=O)(=O)N2CCCCC2)cc1C(C)C,0.9%,0.1,2%,-1.1,4%,-7
CN(C)CCN1CC(O)=C(c2nc3ccccc3s2)C1=N,.,-0.2,-7%,7.4,8%[15.4 µM],9
CCc1nn(-c2ccccc2)c(N)c1C#N,.,0.3,2%,-1.1,14%[15.4 µM],-12
Cc1ccc(NC(=O)Cc2c(C(=O)O)c(C)cn2C)cc1Cl,-2.2%,-0.6,.,.,.,-4
Cn1c(SCC(=O)N2CCCc3ccccc32)nnc1-c1ccccc1,1.4%,-0.5,2%,2.1,-6%,-14
O=C(Cc1ccc(Cl)c(Cl)c1)Nc1ccc2[nH]c(=O)[nH]c2c1,.,-0.4,-34%,4.4,15%[15.4 µM],-3
Cc1ccc(CNC(=O)c2ccc(COc3ccccc3)cc2)cc1,1.5%,1.6,11%,7.5,5%,-15
COCCCNC(=S)Nc1ccc(CC(=O)O)cc1,-1.6%,0.4,9%,-1.3,9%,-24
CNS(=O)(=O)c1cc(N)ccc1C,.,-0.7,-35%,-5.5,7%[15.4 µM],-14
O=C(NCCC1=CCCCC1)C(=O)NCc1ccccc1,-0.3%,1.0,12%,2.2,-24%,-6
COc1ccccc1C(=O)Nc1c[nH]c(=O)[nH]c1=O,-0.4%,.,-15%,1.1,-6%,.
COc1ccc(OC)c(NC(=O)Cn2ccc3ccccc3c2=O)c1,-12%,-0.5,.,.,.,-4
CCOc1cc(-c2nc3ccccc3s2)ccc1O,.,1.9,-5%,3.6,2%[15.4 µM],-10
O=C(CCC1N=C2c3ccccc3N=C(SCc3ccccc3F)N2C1=O)NC1CCCCC1 (configuration not stated),?,1.6,.,.,.,-1

# (listing goes on)
structure,ClpP mod,TRPML1 agonist,gsp antag,Menin MLL FP FL,gsp agonist,TRPML1 inh
COc1ccc2c(c1)C(c1ccc(Cl)cc1)NC(=O)C2 (configuration not stated),-1.9%,0.0,-13%,.,?,-7
CCc1ccc(/C=C2/SC(N3CCOCC3)=NC2=O)cc1,.,0.5,4%,0.7,-2%[15.4 µM],-15
COc1c2c(cc(O)c1C(C)=O)OC(C)(C)C=C2,.,0.9,-4%,.,18%,-9
N#CC1=C(N)Oc2cc(N)ccc2C1C1CC=CCC1 (configuration not stated),-1.5%,0.5,-2%,4.5,-21%,1
Cc1cc(=O)n2c(n1)SCOC2,.,0.0,7%,-0.4,-11%[15.4 µM],-9
Cc1cc(OCC(=O)Nc2ccc3c(c2)OCCO3)ccc1Cl,-2.2%,3.2,-38%,1.8,14%,28
COC(=O)C1=C(N)N(c2ccccc2C(F)(F)F)C2=C(C(=O)CCC2)C1c1ccc2c(c1)OCO2 (configuration not stated),26%,1.1,-9%,1.0,25%,1
CCOC(=O)c1[nH]c2cc3c(cc2c1NC(=O)CN1CCCC1)OCO3,0.6%,0.6,-13%,-0.8,7%[15.4 µM],-3
COc1ccc(N(CC(=O)N/N=C(\C)c2ccc(OC)c(OC)c2)S(=O)(=O)c2ccccc2)cc1,.,1.5,11%,1.2,23%,-10
COc1cccc(CNC(=O)c2cc(COc3c(F)cccc3F)on2)c1,.,0.8,-8%,1.6,14%,-16
COc1ccc(N2CCN(C(=O)c3cc([N+](=O)[O-])ccc3N3CCN(CCO)CC3)CC2)cc1,-22%,-0.1,-4%,.,3%,1
